# HCMV NEC inh – disrupts HCMV UL50-UL53 complex binding; AID 1918969; actives 0.15% (n = 190,000); HTRF UL50-UL53 interaction, normalized percent inhibition; inhibition, % (no concentration beside the values);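 active = both replicates at 50% or more, plus weaker picks with an unusually low signal ratio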;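 note: stock transfer was 100 nL into about 20 µL; 0% = negative control wells and 100% = wells with untagged competitor protein; inactives centre near -12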
# GIV-Gai inh – blocks GIV peptide binding to rat Galpha-i3; P08753; Galpha-i3/FITC-GIV peptide fluorescence polarization, 90 min; hits give low values; scaled: aluminum fluoride 0%, vehicle 100%; percent of control (FP), % (no concentration beside the values); actives 0.42% (n = 210,000); AID 1224905;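 active = replicate mean at 85% of control or lower, very high polarization wells dropped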;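 note: wells of about 15 µL received 100 nL stock; the first replicate is given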
# Target sequence (P08753 whole entry, looked up): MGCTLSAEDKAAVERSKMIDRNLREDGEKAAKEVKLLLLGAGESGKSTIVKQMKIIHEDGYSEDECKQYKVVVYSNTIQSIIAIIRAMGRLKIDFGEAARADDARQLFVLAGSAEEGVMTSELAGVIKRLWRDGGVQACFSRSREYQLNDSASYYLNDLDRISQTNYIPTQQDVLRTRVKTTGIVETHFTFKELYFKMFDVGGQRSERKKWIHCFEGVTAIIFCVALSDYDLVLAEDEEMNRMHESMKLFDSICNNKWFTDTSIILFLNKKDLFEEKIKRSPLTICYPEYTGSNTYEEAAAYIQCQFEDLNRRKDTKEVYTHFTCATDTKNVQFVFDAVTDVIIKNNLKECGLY
# Sa growth inh – blocks Staphylococcus aureus growth; S. aureus RN4220 growth, OD600, 20 h, 42 °C; hits give low values; relative growth, % (concentration not given with the values); actives 0.53% (n = 170,000); AID 720641;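 active = growth at 42 °C up to 50% and 20 or more points under that at 30 °C, or under 10% at both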;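 note: 300 nL library stock went into each well; scaled to the means of positive and negative controls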
# Sa growth inh second temp – recorded beside Sa growth inh, whose call it bears; relative growth, %; measured here: growth at 30 °C;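 optical density after 20 h as mean of two plates; 100% = untreated growth and lower means inhibition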
# Active calls of the source: *; x = no result given; & = joins results of further samples. This is a subset; count on the stated rates, not on these rows.
# Sample of the layout, 21 compounds:
SMILES,HCMV NEC inh,GIV-Gai inh,Sa growth inh,Sa growth inh second temp
O=C(C1CCN(c2nc3ccc(Br)cc3s2)CC1)N1CCC2(CC1)OCCO2,3,102,103,84
CC1=NN=C(c2ccc(N)cc2)c2cc3c(cc2C1)OCO3,-9&-16,105,x,x
Cc1c(NC(=O)C(C)OC(=O)Cc2ccccc2)c(=O)n(-c2ccccc2)n1C (centres undefined),-22,x,95,93
CN1C2CCC1CC(=NOC(=O)c1ccc(F)cc1)C2,-3,104,98,97
COc1cc(C(=O)CN(C)C2CCCCC2)cc(OC)c1OC,-12,x,94,88
COc1ccccc1N1CCN(C(=O)C2c3ccccc3C(=O)N3CCC(C)CC23)CC1 (centres undefined),-10,104,104,88
CN[C@@H]1C[C@@H](c2ccc(Cl)c(Cl)c2)c2ccccc21,-4&-26,98,86,61
CCCN(CCO)C1CCCC(C)C1 (centres undefined),-2,99,99,110
O=C(COCC1CCCN2CCCCC12)Oc1ccccc1 (centres undefined),-3,x,87,56
CN(C)C(Cc1ccc(C#N)cc1)C(=O)c1ccccc1 (centres undefined),18,x,109,96
CCOc1cc(CNC2CN3CCC2CC3)ccc1OCc1ccccc1 (centres undefined),x,108,107,86
COCc1cc(OC(=O)N(C)C)nc(Cc2c(Cl)cccc2Cl)n1,2,99,97,102
O=C(c1ccccc1)c1cc(Cl)ccc1NC(=O)C(F)(F)F,-22,101,x,x
Cc1ccc(Cn2cccc(C(=O)Nc3cc(C)on3)c2=O)cc1,x,105&103,127,94
O=C1NC(=O)C(C2CCS(=O)(=O)C2)C(=O)N1 (centres undefined),-18,x,102,97
O=C1CCCC2C3CCCN4CCCC(CN12)C34 (centres undefined),-12,104,90,85
Cc1cccc(CN2CCNCC2)c1,-4,x,83,98
Cc1c(C(=O)N2CCC3(CC2)OCCO3)sc2ncnc(N3CCN(c4ccccn4)CC3)c12,31,106,x,x
COC(=O)C1C2c3ccccc3C(c3ccccc32)C1C(=O)OC (centres undefined),-6,107,97,97
O=C(c1ccc2ccccc2c1)C12CN3CN(CN(C3)C1)C2,9,99,109,102
O=C(Nc1cc(C(F)(F)F)cc(C(F)(F)F)c1)c1cccn(Cc2ccccc2Cl)c1=O,x,100,96,102

# All compounds of this part, previewed entries included:
SMILES,HCMV NEC inh,GIV-Gai inh,Sa growth inh,Sa growth inh second temp
O=C(C1CCN(c2nc3ccc(Br)cc3s2)CC1)N1CCC2(CC1)OCCO2,3,102,103,84
CC1=NN=C(c2ccc(N)cc2)c2cc3c(cc2C1)OCO3,-9&-16,105,x,x
Cc1c(NC(=O)C(C)OC(=O)Cc2ccccc2)c(=O)n(-c2ccccc2)n1C (centres undefined),-22,x,95,93
CN1C2CCC1CC(=NOC(=O)c1ccc(F)cc1)C2,-3,104,98,97
COc1cc(C(=O)CN(C)C2CCCCC2)cc(OC)c1OC,-12,x,94,88
COc1ccccc1N1CCN(C(=O)C2c3ccccc3C(=O)N3CCC(C)CC23)CC1 (centres undefined),-10,104,104,88
CN[C@@H]1C[C@@H](c2ccc(Cl)c(Cl)c2)c2ccccc21,-4&-26,98,86,61
CCCN(CCO)C1CCCC(C)C1 (centres undefined),-2,99,99,110
O=C(COCC1CCCN2CCCCC12)Oc1ccccc1 (centres undefined),-3,x,87,56
CN(C)C(Cc1ccc(C#N)cc1)C(=O)c1ccccc1 (centres undefined),18,x,109,96
CCOc1cc(CNC2CN3CCC2CC3)ccc1OCc1ccccc1 (centres undefined),x,108,107,86
COCc1cc(OC(=O)N(C)C)nc(Cc2c(Cl)cccc2Cl)n1,2,99,97,102
O=C(c1ccccc1)c1cc(Cl)ccc1NC(=O)C(F)(F)F,-22,101,x,x
Cc1ccc(Cn2cccc(C(=O)Nc3cc(C)on3)c2=O)cc1,x,105&103,127,94
O=C1NC(=O)C(C2CCS(=O)(=O)C2)C(=O)N1 (centres undefined),-18,x,102,97
O=C1CCCC2C3CCCN4CCCC(CN12)C34 (centres undefined),-12,104,90,85
Cc1cccc(CN2CCNCC2)c1,-4,x,83,98
Cc1c(C(=O)N2CCC3(CC2)OCCO3)sc2ncnc(N3CCN(c4ccccn4)CC3)c12,31,106,x,x
COC(=O)C1C2c3ccccc3C(c3ccccc32)C1C(=O)OC (centres undefined),-6,107,97,97
O=C(c1ccc2ccccc2c1)C12CN3CN(CN(C3)C1)C2,9,99,109,102
O=C(Nc1cc(C(F)(F)F)cc(C(F)(F)F)c1)c1cccn(Cc2ccccc2Cl)c1=O,x,100,96,102
CCOc1ccc(NC(=O)Cn2cc(C(=O)c3ccccc3)c3ccccc32)cc1,-14,105,101,88
CN1CCC(c2c[nH]c3ccc(O)cc23)CC1,-11&-9&-30,98,x,x
COc1ccc2c(c1)[C@]13CCCC[C@@H]1[C@H](C2)N(C)CC3,1&-11&-33,99,94&90&94,85&87&90
COc1ccc(OC)c(CCNCc2c(C(=O)O)c(C)n(Cc3ccc(F)cc3Cl)c2C)c1,-2,108,107,83
CC(C)OC12Oc3ccccc3C=C1N1CCC2CC1 (centres undefined),-12,95,85,96
Fc1ccc(CN2CCN(Cc3ccccc3)CC2)cc1,-14,x,107,92
OC1(c2ccccc2)CCNC1 (centres undefined),-4,104,88,85
CCOC(=O)c1c(NC(=O)C2C(C)(C)C2(C)C)sc2c1CCC2,8,x,120,72
CCOC(=O)c1cc(C(C)(C)C)nc(OC(=O)N(C)C)c1C#N,-21,104,100,84
CCC(=O)N(Cc1ccc(OC)c(OC)c1)C1CC(C)N(C)CC1C (centres undefined),-22,101,92,87
CCC(C)C12CN3CCN(CC(C)(C3)C1O)C2 (centres undefined),4,106,108,101
CC1=NN(c2ccccc2)C(=O)C1/C=C1\C(=O)NC(=O)N(c2cc(C)cc(C)c2)C1=O (centres undefined),-20,107,x,x
Cc1c(O)ccc(C(=O)CN2CC(C)OC(C)C2)c1O (centres undefined),-3,104,92,96
CCOC(=O)c1c(C)n(Cc2ccccc2)c2ccc(OC(C)=O)cc12,x,106,128,90
CC(C)NCc1c[nH]c2ccccc12,9,104,95,91
OC[C@@H]1CCCN2CCCCC12 (some centres undefined),-7,103,100,92
Cc1cccc(-c2nn3c(=O)cc(CN4CCN(C(=O)COc5ccc(Cl)cc5)CC4)nc3s2)c1,x,108,118,99
Cc1cc(OC(=O)N(C)C)nc(SCC(=O)C(C)(C)C)n1,-5,100,90,83
CC(=O)N(C1=NCCCS1)c1ccc(C)cc1,-18,97,92,87
COc1ccc(C)cc1NC(=O)c1cccn(Cc2cccc([N+](=O)[O-])c2)c1=O,x,104,89,98
CCC(Cc1cc(OC)c(C)cc1OC)NC(=O)c1ccc(F)c(F)c1 (centres undefined),-28,103,117,80
Clc1ccc(CNC2CN3CCC2CC3)cc1 (centres undefined),x,104,119,97
O=C1CC(c2ccc(F)cc2)c2c(c3ccccc3oc2=O)O1 (centres undefined),-6,103,114,94
CNCCc1c[nH]c2ccccc12,-8,107,97,82
CC1(C)CC(Nc2nc(Cl)c(C#N)c(Cl)c2Cl)CC(C)(C)N1,13,105,107,83
COc1cc(NC(=O)CCc2nc(C3=CCN(C)CC3)no2)cc(OC)c1OC,3,103,94,97
Brc1ccc(C2NCCc3[nH]cnc32)cc1 (centres undefined),-6,101,x,x
CN(C)/N=C/c1cn(C)c2ccccc12,-14,x,110,97
CCc1ccc(OCC(=O)N2CCN(CCc3ccncc3)CC2)cc1,8,106,76,95
COc1ccc(NC2=NP(N(C)C)(N(C)C)=NC(c3ccccc3)=N2)cc1,6,x,90,74
CC(=O)N1N=C(c2cccnc2)OC1c1cccnc1 (centres undefined),-1,95,x,x
COCCNc1cnn(C23CC4CC(CC(C4)C2C(=O)O)C3)c(=O)c1Cl (centres undefined),-7,104,98,98
CCN=C1N=C(c2ccccc2)N=P(NCC)(NCC)N1,-5,104,116,104
Cc1ccc2c(c1)C1CN(C)CCC1N2C(=S)Nc1cccnc1 (centres undefined),-12,x,77,92
CCCCn1c(C)c(C(=O)OCC)c2cc(OC(=O)c3cccc(Cl)c3)c3ccccc3c21,13,107,x,x
CC(C)(C)N1C(=O)NC(=O)/C(=C/c2ccccc2Cl)C1=O,34,96,111,72
CC(C)c1ccc(O)cc1,-5,x,93,90
CCn1c(O)c(C=Nc2ccc(N3CCOCC3)c(Br)c2)c(=O)n(CC)c1=S,-14,114,105,95
CN(C)C(=O)Oc1cccc(NC(=O)c2c(F)cccc2F)c1,1,108,100,103

# Quoted at random: 2 records from the list, in no set order.
SMILES,HCMV NEC inh,GIV-Gai inh,Sa growth inh,Sa growth inh second temp
CN(C)C(=O)Oc1cccc(NC(=O)c2c(F)cccc2F)c1,1,108,100,103
Cc1ccc2c(c1)C1CN(C)CCC1N2C(=S)Nc1cccnc1 (centres undefined),-12,x,77,92

# Going on with the list:
SMILES,HCMV NEC inh,GIV-Gai inh,Sa growth inh,Sa growth inh second temp
Cc1nc2cc(-c3ccccc3)nn2c(C)c1CCC(=O)N1CCC2(CC1)OCCO2,10,110,101,96
Cc1cc(OCC(=O)N2CCN(CCc3ccccn3)CC2)cc(C)c1Cl,-2,103,116,85
O=C1CNC(c2ccccc2)c2cc(Br)ccc2N1 (centres undefined),-16,105,101,89
CCOc1ccccc1C=C(C#N)C#N,-1,100,73,65
COC(=O)c1c(C)n(Cc2ccccc2)c2ccc(O)cc12,-33,x,105,84
O=C(O)c1nn(Cc2ccc(Cl)cc2Cl)c2ccccc12,3&-18&-11,101,x,x
COc1ccc(N)cc1,-40,x,82,85
CC1(C)CC(=O)C=C(NCCN2CCN(C(=O)Cc3ccc(Cl)cc3)CC2)C1,2,113,95,100
NC(=S)Nc1ccccc1,-9,x,111,87
CCC1C2CC3C4N(C)c5ccccc5C45CC(C2C5O)N3[C@@H]1O (some centres undefined),-1,104,96,74
COc1ccc(OC)c(NC(=O)Cn2cc(C(=O)c3ccccc3F)c3ccccc32)c1,-14,104,98,70
O=S1(=O)N(Cc2ccccc2)CCCN1Cc1ccc(Cl)cc1,-9,105,96,96
CCOC(=O)c1noc2ncnc(N(Cc3ccco3)C3CCN(C)CC3)c12,4,102,113,94
COc1cc(/C=c2/sc3nc4ccccc4n3c2=O)cc(OC)c1OC(=O)N(C)C,-16,109,x,x
COc1cc(C=C2C(=O)NC(=O)NC2=O)cc(Cl)c1OCCOc1ccccc1,13,104,x,x
COCCn1cc(C(=O)O)c2ccccc21,-17,96,110,91
CC(C)=CCC12CN3CCN(CC(C3)C1=O)C2,-15,101,86,89
COc1ccc(NC(=O)c2sc3nc4c(cc3c2N)N2CCC4CC2)cc1OC,x,100,109,100
c1ccc(C2N3CCCN23)cc1 (centres undefined),x,103,85,90
O=C(Nc1ccon1)c1cc2cccnc2n(Cc2ccccc2)c1=O,-11,109,x,x
O=C(O)C1CSC(c2cccnc2)=N1 (centres undefined),-2,100,88,95
CC(=O)N1N=C2C3CCN(CC3)[C@@H]2[C@@H]1c1ccc(Cl)cc1,-12,101,x,x
CC1CSC(Nc2ccccc2C(C)C)=N1 (centres undefined),-47,x,118,88
CCOC(=O)C(Cc1c[nH]c2ccccc12)NC(=O)C(Cc1ccc(N(CCCl)CCCl)cc1)NC(C)=O (centres undefined),-5,102,x,x
FC(F)(F)c1ccccc1NC1=NCCCS1,-20,x,121,90
Cn1c(=O)n(C)c2cc(CNCCc3ccc(F)cc3)ccc21,-23,107,106,88
CCCS(=O)(=O)N1CCCC(C(=O)N2CCC3(CC2)OCCO3)C1 (centres undefined),-23,101,100,92
NC(=O)CS(=O)C(c1ccccc1)c1ccccc1 (centres undefined),-51&-21&-41,x,97&89,99&85
CCCCCCCCCCCCCCCC[N+](C)(C)C,-13&-77,x,-0.5*,-0.5*
CCc1nn(C(C)C(=O)N2CCC3(CC2)OCCO3)c(=O)c2cc3occc3n12 (centres undefined),-7,99,104,86
CN1CCc2nc3sc(C(=O)C(C)(C)C)c(N)c3cc2C1,-81,x,155,78
CC12CN3CCN(CC(C3)/C1=N\O)C2,1,98,99,111
CC(O)CN1CCCCC1c1cccnc1 (centres undefined),-2,x,100,98
O=S1(=O)N(Cc2ccccc2)CCCN1Cc1cccc(Cl)c1,x,99,70,89
CC(C)(C)n1ncc(Cl)c(Cl)c1=O,-4,97,94,91
CC1=C(C(=O)OC(C)(C)C)C2(C(=O)Nc3ccc(Br)cc32)C(C#N)=C(N)O1 (centres undefined),-22,102,x,x
CCOC(=O)C1CCN(/C=C2/C(=O)NC(=O)N(Cc3ccco3)C2=O)CC1,4,103,97,102
CCCCn1c(C)c(C(=O)OCC)c2cc(OC(=O)c3ccccc3F)c3ccccc3c21,18,107,x,x
CN(C)C(=S)SSC(=S)N(C)C,-26,x,-0.7*,-0.1*
O=C1NC(=O)N(c2ccccc2)C(=O)/C1=C/c1ccccc1,6,97,97,104
Cn1cc(C(=O)OCC(=O)Nc2ccc(Cl)cn2)c2ccccc21,-34,x,75,89
Cc1ccc(S(=O)(=O)NC(=O)N2CC3CC(C2)c2cccc(=O)n2C3)cc1 (centres undefined),-49,101,84,81
COC(CSc1nc2cccc(F)c2c(=O)n1-c1ccc(C)c(C)c1)OC,3,104,99,101
C=CCOC(=O)C1=C(C)OC(N)=C(C#N)C12C(=O)Nc1ccccc12 (centres undefined),-17,104,x,x
OC1C2CCCC1C(N1CCCC1)CC2 (centres undefined),-13,100,98,81
Cc1nn(C)c2c1c(-c1ccccc1)cc(=O)n2C(C)C(=O)N1CCC2(CC1)OCCO2 (centres undefined),-22,100,104,93
O=C1OC(c2ccc(Cl)cc2)=N/C1=C\N1CC2CC(C1)c1cccc(=O)n1C2 (centres undefined),-44,114,99,85
CC(Cc1ccccc1)NCc1ccccc1O (centres undefined),-23,x,107,82
